Screening data (PubChem BioAssay)
total CFTR: compounds raising F508del-CFTR protein level – cell-based, HeLa F508del-CFTR, immunofluorescence, viability, primary screen (AID 1224863) | HeLa F508del-CFTR, immunofluorescence total CFTR, 24 h; by the record results were divided by relative cell number; some inactives read as strong as hits | calls, or highest fold increase where a dose series was run | 10,000 tested, 0.1% active; in the data nearly all actives have a first-pass fold increase above 1.5; a few of its hits are not listed in these tables;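 note: total CFTR protein by anti-CFTR immunofluorescence in fixed cells; first pass at 25 µM or 10 µg/mL by library and series up to twice that; 1 = untreated cells; first-pass hits also needed half or more of the cells alive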
total CFTR fold 25 µM: also measured in total CFTR; calls as there; fold increase; measured here: primary screen single dose 25 uM; library dosed in µM
total CFTR fold 10 ug/mL: recorded beside total CFTR, whose call it bears; fold increase; measured here: primary screen 10 ug/mL
total CFTR viability 25 µM: also measured in total CFTR; calls as there; viability, %; measured here: primary viability 25 uM; library dosed in µM;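 0% = killed and 100% = untreated cells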
total CFTR viability 10 ug/mL: also measured in total CFTR; calls as there; viability, %; measured here: primary viability 10 ug/mL;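 0% = killed and 100% = untreated cells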
Active calls of the source: *; i = inactive; . = no result given; & = joins results of further samples.

SMILES	total CFTR	total CFTR fold 25 µM	total CFTR viability 25 µM	others
CCn1cc(C(=O)O)c(=O)c2cnc(N3CCNCC3)nc21	i	1.1	92
NC(N)=O	i	0.96	97
CC(C)COC(=O)c1ccc(N)cc1	i	1	102
CC(=O)CCCCn1c(=O)c2c(ncn2C)n(C)c1=O	i	0.8&1.1	58&102
CC1=CC(O)=NS(=O)(=O)O1	i	1.1	82
NC1CCN(c2nc3c(cc2F)c(=O)c(C(=O)O)cn3-c2ccc(F)cc2F)C1 (centres undefined)	i	0.88	99
O=C(O)c1cccnc1Nc1cccc(C(F)(F)F)c1	i	1.1&0.92	110&96
CCc1ccc(CCOc2ccc(CC3SC(=O)NC3=O)cc2)nc1 (centres undefined)	i	1.1&1	91&89
CC12CC3CC(C)(C1)CC(N)(C3)C2	i	0.97	90
CCN(CC)CCNC(C(=O)OCCC(C)C)c1ccccc1 (centres undefined)	i	1.1	90
O=c1oc2c(O)c(O)cc3c(=O)oc4c(O)c(O)cc1c4c23	i	1	108
C1COC(NC(C2CC2)C2CC2)=N1	i	1.1	106
CNCCCN1c2ccccc2CCc2ccccc21	i	1.1	86
Cc1ccc(N(CC2=NCCN2)c2cccc(O)c2)cc1	i	1.1&1.1	90&102
Oc1ccc(C2CNCCc3c2cc(O)c(O)c3Cl)cc1 (centres undefined)	i	1&0.98	86&101
CCCCNc1ccc(C(=O)OCCOCCOCCOCCOCCOCCOCCOCCOCCOC)cc1	i	0.92	79
C[C@@H]1CC2C3CCC4=CC(=O)C=C[C@]4(C)[C@@]3(Cl)[C@@H](O)C[C@]2(C)[C@@]1(OC(=O)c1ccco1)C(=O)CCl (some centres undefined)	i	1.1	86
CCCC(N[C@@H](C)C(=O)N1[C@H](C(=O)O)C[C@@H]2CCCC[C@@H]21)C(=O)OCC (some centres undefined)	i	1.1	78
COc1ccc(-c2cc(=S)ss2)cc1	i	0.96	90
CN(Cc1ccccc1N1CCOCC1)C(=O)C12CC3CC(CC(C3)C1)C2	i	.	.	total CFTR fold 10 ug/mL=0.99;total CFTR viability 10 ug/mL=96
CN(C)CCCC1(c2ccc(F)cc2)OCc2cc(C#N)ccc21 (centres undefined)	i	1.1&1.1	99&117
Cn1c(CNc2ccc(C(=N)N)cc2)nc2cc(C(=O)N(CCC(=O)O)c3ccccn3)ccc21	i	1.2	108
CC(=O)Nc1ccc(CC(=O)O)cc1	i	1&0.91	87&96
CCOC(N)=O	i	1.1	98
CN1CCCN=C1COC(=O)C(O)(c1ccccc1)C1CCCCC1 (centres undefined)	i	1.1	103
CC(=O)O[C@@]12CO[C@@H]1C[C@H](O)[C@@]1(C)C(=O)[C@H](O)C3=C(C)[C@@H](OC(=O)[C@H](O)[C@@H](NC(=O)OC(C)(C)C)c4ccccc4)C[C@@](O)([C@@H](OC(=O)c4ccccc4)C12)C3(C)C (some centres undefined)	i	0.67&1.1	87&100
CC1Cc2ccccc2N1NC(=O)c1ccc(Cl)c(S(N)(=O)=O)c1 (centres undefined)	i	1.1&0.89&1.1	83&98&89
N#Cc1ccc(C(c2ccc(C#N)cc2)n2cncn2)cc1	i	0.96&1&1.1	79&88&81
COc1ccc([C@H]2CNC(=O)C2)cc1OC1CCCC1	i	1	93
NC(=O)C1(N2CCCCC2)CCN(CCCC(=O)c2ccc(F)cc2)CC1	i	1.1	83
CCN(CC)CCOC(=O)c1ccc(N)cc1	i	0.97	106
COc1ccc(C2CNC(=O)C2)cc1OC1CCCC1 (centres undefined)	i	1.1	89
CC1(C)O[C@@H]2CC3C4C[C@H](F)C5=CC(=O)C=C[C@]5(C)[C@@]4(F)[C@@H](O)C[C@]3(C)[C@]2(C(=O)CO)O1 (some centres undefined)	i	1.1	90
CC[C@H](NC(C)C)[C@H](O)c1ccc(O)c2[nH]c(=O)ccc12	i	0.98	76
O=C(O)CCC(=O)c1ccc(-c2ccccc2)cc1	i	1&1.1	88&107
CCCCNc1ccc(C(=O)OCCN(C)C)cc1	i	0.97&1.2	74&108
CCOC(=O)[C@H](CCc1ccccc1)N[C@@H](C)C(=O)N1Cc2ccccc2C[C@H]1C(=O)O	i	0.94&1.1	94&76
O=C(CCCl)NCc1ccccc1	i	0.96	90
C/C=C/C(=O)N(CC)c1ccccc1C	i	1&0.92	88&90

Part of the list above in order of SMILES length, falling.
SMILES	total CFTR	total CFTR fold 25 µM	total CFTR viability 25 µM	others
CCOC(=O)[C@H](CCc1ccccc1)N[C@@H](C)C(=O)N1Cc2ccccc2C[C@H]1C(=O)O	i	0.94&1.1	94&76
CC[C@H](NC(C)C)[C@H](O)c1ccc(O)c2[nH]c(=O)ccc12	i	0.98	76
COc1ccc(C2CNC(=O)C2)cc1OC1CCCC1 (centres undefined)	i	1.1	89
CCCCNc1ccc(C(=O)OCCN(C)C)cc1	i	0.97&1.2	74&108
CCN(CC)CCOC(=O)c1ccc(N)cc1	i	0.97	106
C/C=C/C(=O)N(CC)c1ccccc1C	i	1&0.92	88&90

Reprinted from the entries so far for reference:
SMILES	total CFTR	total CFTR fold 25 µM	total CFTR viability 25 µM	others
CCN(CC)CCOC(=O)c1ccc(N)cc1	i	0.97	106
COc1ccc(C2CNC(=O)C2)cc1OC1CCCC1 (centres undefined)	i	1.1	89
CC1(C)O[C@@H]2CC3C4C[C@H](F)C5=CC(=O)C=C[C@]5(C)[C@@]4(F)[C@@H](O)C[C@]3(C)[C@]2(C(=O)CO)O1 (some centres undefined)	i	1.1	90

The list is partial. The share of hits here may be higher or lower than overall.
